Assay outcomes from PubChem.
ANO1 activ: activators or potentiators of mouse TMEM16A chloride channel | Q8BHY3 | HEK293 TMEM16A/YFP-H148Q/I152L, iodide quench fluorescence; stronger effect = lower value | B-score at 10 µM | 340,000 compounds, 0.3% hits;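 active means fluorescence-ratio B-score plate-corrected deviation score at least 3 library SD below zero, with starting fluorescence score within 5 deviations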;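 further: channel opened by trigger with iodide after compound preincubation; score built on the fluorescence ratio of max minus min over baseline; more negative score means more quench and so TMEM16A activation or potentiation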
TMEM16A inh: inhibitors of mouse TMEM16A calcium-activated chloride channel. HEK293 TMEM16A/YFP iodide influx fluorescence, ionomycin. normalized B-score (activity score, 25-100; higher = stronger inhibition) at 10 µM. 310,000 compounds, 1.2% hits. AID 588511;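 active means ratio plate-corrected score three or more library SD toward inhibition, starting fluorescence score within five deviations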;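 further: score derived from kinetic fluorescence span divided by baseline fluorescence per well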
KCNK3 block: human KCNK3 channel inhibition, primary screen. CHO-KCNK3 thallium flux, FluxOR fluorescence; stronger effect = lower value. B-score at 10 µM. 340,000 compounds, 0.84% hits. AID 602410;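 active means B-score under library mean minus 4 SD, starting fluorescence ratio at most library mean plus 5 SD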;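 further: more negative B-score means stronger inhibition of thallium flux through KCNK3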
KCNQ1 block: human KCNQ1 channel inhibition; B-score at 10 µM; CHO-K1 KCNQ1, FluxOR thallium flux fluorescence; stronger effect = higher value; 310,000 compounds, 1.3% hits; P51787;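 active means compounds whose thallium flux B-score, printed positive for inhibition, exceeds three library SD while starting fluorescence stays within three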;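 further: channel opened by potassium depolarization with thallium stimulus after 20 min compound exposure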
MrgX1 PAM: human MrgX1 positive allosteric modulation, primary screen | Q96LB2 | MrgX1-HEK293, Fluo-4 calcium flux, FDSS; stronger effect = higher value | B-score at 10 µM | 310,000 compounds, 0.63% hits | AID 588675;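 active means plate-corrected calcium response at least 3 library SD above typical, normal starting fluorescence, not activating the receptor alone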;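 further: compound read alongside a low EC10 to EC30 dose of BAM8-22 agonist; peak minus trough fluorescence over baseline measured at the second addition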
RGS4 block: inhibitors of human RGS4; B-score at 10 µM; HEK293 M3R/RGS4 inducible, Fluo-4 calcium flux; stronger effect = higher value; triggered by carbachol at its EC20; AID 463165; 310,000 compounds, 0.45% hits; P49798;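 active means B-score, a plate-corrected calcium signal, over three deviations above library mean, with baseline fluorescence within five deviations of library mean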;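 further: RGS4 expression induced by doxycycline in cells with stable M3 receptor; B-score is computed from the integrated fluorescence ratio over baseline after carbachol; higher B-score means a larger calcium signal and so more RGS4 inhibition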
Target sequence (P49798 whole entry, looked up): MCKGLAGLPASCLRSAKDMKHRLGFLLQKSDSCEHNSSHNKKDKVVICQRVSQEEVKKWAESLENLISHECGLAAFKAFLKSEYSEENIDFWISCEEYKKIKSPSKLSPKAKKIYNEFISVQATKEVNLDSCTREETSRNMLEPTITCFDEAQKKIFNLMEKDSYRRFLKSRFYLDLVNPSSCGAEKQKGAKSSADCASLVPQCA
KCNQ1 pot: human KCNQ1 channel potentiation or activation. CHO-K1 KCNQ1, thallium flux FluxOR fluorescence; stronger effect = higher value. 310,000 compounds, 0.35% hits. P51787. AID 2648. B-score at 10 µM;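 active means fluorescence ratio B-score, a plate-corrected score, at least three library SD, with initial intensity B-score within 5 SD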
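Assay system: CHO-K1 cells stably expressing KCNQ1; Medium: assay buffer with matched DMSO; Also added: K+/Tl+ depolarizing stimulus; Dosing: single dose; Timing: dye 90 min, compound 20 min, room temperature; Measured by: kinetic FluxOR thallium fluorescence, 10-s 1-Hz baseline, 110-s post-stimulus read; Read-out: peak-minus-minimum fluorescence over initial fluorescence, negative-control normalized, B-scored.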
RGS4 act: potentiators or activators of RGS4; HEK293 M3R/inducible RGS4, carbachol calcium flux Fluo4; stronger effect = lower value; B-score at 10 µM; 310,000 compounds, 0.92% hits; AID 463111;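 active means B-score of the integrated calcium signal more than 4 SD below the library mean, with starting fluorescence not abnormally high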;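 further: negative B-score means reduced calcium response which marks RGS4 activation or potentiation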
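Assay system: Inducible-RGS4 HEK293 cells carrying M3 receptor | Schedule: Compound preincubation 20 min at room temperature before agonist | Signal: Kinetic calcium fluorescence imaging with Fluo4-AM dye, 2 µM | Read-out basis: B score from integrated fluorescence ratio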
KCNK9 inh: human KCNK9 channel inhibition. Q9NPC2. HEK293 KCNK9, FluxOR thallium flux fluorescence; stronger effect = lower value. B-score at 10 µM. 310,000 compounds, 1.2% hits. AID 488922;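 active means ratio B-score over 3 SD below the library mean, with starting fluorescence within 5 SD of its mean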;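 further: negative B-score means less thallium flux so channel inhibition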
Target sequence (Q9NPC2 whole entry, looked up): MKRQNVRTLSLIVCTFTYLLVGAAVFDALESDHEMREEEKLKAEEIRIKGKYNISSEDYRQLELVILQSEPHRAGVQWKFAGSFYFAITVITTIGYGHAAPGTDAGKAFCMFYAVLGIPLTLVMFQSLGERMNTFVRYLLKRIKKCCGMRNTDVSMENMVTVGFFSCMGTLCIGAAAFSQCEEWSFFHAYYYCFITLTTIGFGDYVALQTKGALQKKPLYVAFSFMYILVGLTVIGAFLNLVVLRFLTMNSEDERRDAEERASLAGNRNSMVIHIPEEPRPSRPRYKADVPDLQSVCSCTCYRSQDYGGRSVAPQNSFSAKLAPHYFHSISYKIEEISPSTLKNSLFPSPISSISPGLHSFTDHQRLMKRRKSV
MrgX1 agonist: human MrgX1 receptor agonism, primary screen; 310,000 compounds, 0.44% hits; B-score at 10 µM; MrgX1-HEK293 cells, Fluo-4 calcium fluorescence, agonist mode; stronger effect = higher value;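 active means calcium response B-score plate-corrected fluorescence ratio at least 3 library SD, with starting fluorescence B-score inside 5 SD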
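Assay system: stable human MrgX1 HEK293 cell line. Quantity: 15,000 cells per well. Schedule: cells plated overnight, dye loaded 0.5 h 37 °C, 0.5 h room temperature. Detection: Fluo-4 NW calcium-flux fluorescence, kinetic read. Read-out basis: peak-minus-minimum fluorescence over baseline, converted to B scores. Control set: positive and negative control wells on each plate.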
Active calls of the source: *; i = inactive; x = not tested or not shown. A portion of the library (hit frequency here may not be typical).

Every second line gives: ANO1 activ, TMEM16A inh, KCNK3 block, KCNQ1 block, MrgX1 PAM, RGS4 block, KCNQ1 pot, RGS4 act, KCNK9 inh, MrgX1 agonist
CCC(CO)NCCNC(CC)CO (configuration not stated)
    i, i, i, i, i, i, i, i, i, i
CN1CCCC(n2nc(Cc3ccc(Cl)cc3)c3ccccc3c2=O)CC1 (configuration not stated)
    i, i, i, i, i, i, i, i, i, i
CCSc1ncccc1-c1nc2ccccc2[nH]1
    i, i, i, i, i, i, i, i, i, i
CCN(CC)S(=O)(=O)c1cccc(C(=O)Nc2ccc(Cl)cn2)c1
    i, i, i, i, i, i, i, i, i, i
Cc1ncc(C[n+]2csc(CCO)c2C)c(N)n1
    i, i, i, i, i, i, i, i, i, i
CCN(C(=O)CSc1nnc(Cc2cccc3ccccc23)n1N)C1CCS(=O)(=O)C1 (configuration not stated)
    i, i, i, i, i, i, i, i, i, i
Cn1cnc([N+](=O)[O-])c1Sc1ncnc2nc[nH]c12
    i, i, i, i, i, i, i, i, i, i
COc1ccc(/C(C)=N/NC(=O)c2ccncc2)cc1
    i, i, i, i, i, i, i, i, i, i
Nc1ccc(Sc2ccccc2CC(=O)O)cc1
    x, i, x, i, i, i, i, i, i, i
O=C1O[C@H]([C@@H](O)CO)C(O)=C1O
    i, i, i, x, i, x, x, x, x, i
O=C(O)C(Cc1cc(Cl)ccc1Cl)Sc1nc2ccccc2[nH]1 (configuration not stated)
    i, i, i, i, i, i, i, i, i, i
CC(=O)Oc1ccccc1C(=O)Nc1ncc([N+](=O)[O-])s1
    x, 100*, x, 7*, i, i, i, i, i, i
COc1ccc(NC(=O)CN(C)C(=O)c2ccc(S(=O)(=O)Nc3ccccc3F)cc2)cc1
    i, i, i, i, i, i, i, i, i, i
CC(=O)OCC(=O)[C@@]1(O)CC[C@H]2[C@@H]3CCC4=CC(=O)CC[C@]4(C)[C@H]3C(=O)C[C@@]21C
    i, i, i, i, i, i, i, i, i, i
Cc1nc2ccccc2n1S(=O)(=O)c1ccc(F)cc1
    i, i, i, i, i, i, i, i, i, i
C=CCOc1ccc(C2NC(=S)NC(C)=C2C(=O)c2ccccc2)cc1OC (configuration not stated)
    i, i, i, i, i, i, i, i, i, i
O=C(O)c1cccnc1
    i, i, i, i, i, i, i, i, i, i
CC/C(=C(/CC)c1ccc(O)cc1)c1ccc(O)cc1
    i, i, i, i, i, i, i, i, i, i
Cc1cc(C(=O)COC(=O)c2ccc(O)cc2)c(C)n1Cc1ccco1
    i, i, i, i, i, i, i, i, i, i
Cc1ccc(N(Cc2ccccc2)C(=O)c2cc(S(=O)(=O)N3CCOCC3)ccc2Cl)cc1
    i, i, i, i, i, i, i, i, i, i
CCOc1cc(C2C(C(=O)OC(C)C)=C(C)N=C3SCCC(=O)N32)ccc1OC(C)=O (configuration not stated)
    i, i, i, i, i, i, i, i, i, i
COc1cc(S(=O)(=O)n2c(C)nc3ccccc32)ccc1F
    i, i, i, i, i, i, i, i, i, i
CCN(CC)C(=O)[C@]1(c2ccccc2)C[C@@H]1CN
    x, i, x, i, i, i, i, i, i, i
O=C(CCCN1CCC(O)(c2ccc(Cl)cc2)CC1)c1ccc(F)cc1
    i, i, i, i, i, i, i, i, i, i
